RE007 growth inh – qHTS Assay for Inhibitors of the HIV-1 protein Vpr | Potency, µM (top dose mostly 92.2 µM), for inactives: top-dose activity change, negative = less growth | S. pombe RE007 Vpr strain, BacTiter-Glo ATP luminescence, 24 h; control for the full effect not named in the record | AID 651644, 2012 | actives 0.21% (n = 360,000); active = well fitted falling curve with a large enough effect; inconclusive = small, poorly fitted or top-dose-only effect; inactive = no such curve, though single readings can be large or run the other way;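 further: nearly all actives have a fitted effect of over 50% in size; the assay follows cell death caused by Vpr and the record does not say whether a fall means rescue or toxicity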
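Fission yeast strain RE007, carrying one chromosomally integrated HIV-1 vpr copy, was seeded at OD 0.01 in PMG+AL medium with 23 nL pinned compound. After 24 h at 30 °C and 99% humidity, viability was read by BacTiter-Glo luminescence.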
StopGo reporter – High Throughput Screening for Foot and Mouth Disease Virus Antivirals; human cells with a luciferase reporter of 2A StopGo recoding; control for the full effect not named in the record; actives 1.2% (n = 410,000); Potency, µM (titrated, usually from 57.9 µM), inactives show at the highest dose signal change, negative = less light; active = well fitted falling curve with a large enough effect; inconclusive = small, poorly fitted or top-dose-only effect; inactive = no such curve, though single readings can be large or run the other way; tested in HEK293T cells; further: nearly all actives have a fitted effect of over 45% in size; luciferase light after 4 h
Active calls of the source: *; ? = inconclusive; [ ] = another dose, or the depositor's remark. On the % scale 0 is the no-effect control and ±100 the full control effect; potency means the concentration at half of the fitted maximal effect. The list is partial; the hit share may differ from the screen's.

| SMILES | RE007 growth inh | StopGo reporter |
| --- | --- | --- |
| COc1ccc(C(=O)N/C(=C\c2ccc(Cl)cc2)C(=O)NCc2ccncc2)cc1 | -11.4% | 2.7% |
| COc1cc(OC)cc(-c2c(Sc3ccccc3)c3cc(-c4cnc(OC)nc4)ccc3n2C)c1 | 6.9% | 0.0% |
| CC(C)(C)OC(=O)N1CCC[C@H]1C(=O)N1CCC[C@H]1C(=O)NCc1ccncc1 | -11.3% | -24.6% |
| COc1ccc(S(=O)(=O)N[C@@H]2C=C[C@@H](CC(=O)N3CCc4ccccc4C3)O[C@@H]2CO)cc1 | 0.0% | -13.6% |
| COc1ccc(-c2ccc3c(c2)CN(C(=O)C(C)(C)C)Cc2cnnn2-3)cc1 | -0.2% | ? |
| CS(=O)(=O)N1Cc2cc(C(=O)NCC3CCCCC3)nc(-c3cccc(-c4cccnc4)c3)c2[C@H]1CCO | 3.6% | -28.1% |
| CCCNC(=O)C1(C)CCCN(CCOc2ccccc2)C1 (stereo not drawn) | 1.2%[18.4 µM] | -13.1% |
| CSC[C@H]1CN(c2ccc(Br)cc2)C(=O)[C@@H]1CC(=O)Nc1ccc(Br)cc1 | -13.6% | -25.7% |
| CSc1ncccc1C(=O)N1CCC(C)(C(=O)O)C1 (stereo not drawn) | 4.9%[18.4 µM] | 0.1% |
| COc1ccccc1NC(=O)C(C)OC(=O)C1CCN(S(=O)(=O)c2ccccc2C(F)(F)F)CC1 (stereo not drawn) | 5.8% | 0.2% |
| Cc1ccc(S(=O)(=O)N2[C@@H](Cc3ccccc3)CO[C@H]2CC(=O)c2cccs2)cc1 | -5.0% | 5.9% |
| CN(CCc1ccccc1)C(=O)c1ccc(NC(=O)Cc2ccc(NC(=O)C3CCN(C(=O)c4ccccc4)CC3)cc2)cc1 | -1.3% | -7.6% |
| COCCNC(=O)C1CCCN(Cc2cccc(Cl)c2)CC1 (stereo not drawn) | -10.4% | -14.5% |
| CCCCNC(=O)C1c2ccccc2OCC(=O)N1CCc1ccccc1 (stereo not drawn) | 6.6% | -1.7% |
| O=C1CCC[C@@H]2Cc3nc4ccc(Cl)cc4cc3[C@@H]3CCN1[C@H]23 | -10.7% | 6.0% |
| Cn1ncc2c(=S)[nH]c(=S)[nH]c21 | 20.1% | -16.9% |
| CCOC(=O)C1CCCN(C(=O)c2ccc(C)c(F)c2)CC1 (stereo not drawn) | -5.6%[18.4 µM] | -4.7% |
| COc1ccc(Cc2c(-c3ccco3)nc3c(C)cc(Br)cn23)c(C)c1 | ? | ? |
| O=C(NCc1ccccc1)c1cc(C2CCCCN2C(=O)c2cccs2)on1 (stereo not drawn) | 1.1% | -2.9% |
| CC(Sc1ccc(S(=O)(=O)N2CCN(C)CC2)cn1)C(=O)NC1CCCC(C)C1C (stereo not drawn) | -0.5% | -11.6% |
| Cc1c(C(=O)NCc2ccc(Cl)c(Cl)c2)sc(=O)n1Cc1ccc(S(C)(=O)=O)cc1 | 7.9%[18.4 µM] | 35.5µM* |
| Cc1ccc(C(NC(=O)C2CCN(Cc3ccc(Oc4ccccc4)cc3)CC2)c2ccccn2)cc1 (stereo not drawn) | -12.2%[18.4 µM] | -13.9% |
| CCCCn1c(N)c(N(CCOC)C(=O)CN2C(=O)NC3(CC(C)CC(C)(C)C3)C2=O)c(=O)[nH]c1=O (stereo not drawn) | -3.1% | -9.4% |
| CC1(C(=O)NS(=O)(=O)c2cccc(Cl)c2)CCN1C(=O)Cc1cccs1 (stereo not drawn) | 1.9% | 1.1% |
| C=CCOc1ccc(C[C@H](N)C(=O)NC[C@H]2O[C@@H](n3cc(C)c(=O)[nH]c3=O)C[C@@H]2O)cc1 | 4.6% | -16.2% |
| CC(Nc1nc(-c2ccc(Cl)cc2)cs1)c1nc2cc(Cl)c(N3CCCCC3)cc2n1CCOCCO (stereo not drawn) | 7.6% | ? |
| O=C(C[C@@H]1CC[C@H](NC(=O)c2ccc3c(c2)OCO3)[C@@H](CO)O1)NCc1ccc(F)cc1 | 5.9% | -12.7% |
| CCOC(=O)C1CCCN(C(=O)c2ccc(OC)cc2)CC1 (stereo not drawn) | 4.0% | -10.1% |
| Nc1ncnc2c1ccn2[C@H]1CN(Cc2ccc3c(c2)OCO3)C[C@@H](COC(=O)c2ccccc2)O1 | -9.7% | -15.4% |
| OC(c1ccc(-c2ccccc2)cc1)c1ncc(-c2ccccc2)[nH]1 (stereo not drawn) | -25.0% | -11.7% |
| C(=C\c1ccccc1)/CN1CCN(C(c2cc3ccccc3o2)c2nnnn2-c2ccc3c(c2)OCCO3)CC1 (stereo not drawn) | -1.0% | 2.2% |
| C[C@H](CO)N1C[C@H](C)[C@H](CN(C)S(=O)(=O)c2ccccc2F)OCc2cnnn2CCCC1=O | -16.4% | -18.7% |
| CCOC(=O)C1CCCN(C(=O)COc2ccc(C(C)(C)C)cc2)CC1 (stereo not drawn) | 1.0%[18.4 µM] | -7.4% |
| Nc1cc(=O)nc2cn[nH]n12 | 6.2% | -3.9% |
| COC(=O)C[C@@H]1C=C[C@@H](NC(=O)c2cccnc2)[C@@H](CO)O1 | 7.8% | -10.3% |
| O=C1Nc2ccccc2-n2nnnc2C1N1CCN(C(=O)c2ccco2)CC1 (stereo not drawn) | 5.5% | -16.0% |
| O=C(Nc1cccc2ccccc12)c1csc(COCCO)n1 | 5.0% | -15.9% |
| CC(C)CNC(=O)C1(C)CCCCCN1Cc1ccccc1-c1ccccc1 (stereo not drawn) | -2.2% | ? |
| C[C@@H]1CCCCO[C@H](CN(C)C)[C@H](C)CN([C@@H](C)CO)C(=O)c2cc(NC(=O)Nc3ccc(C(F)(F)F)cc3)ccc2O1 | 4.1% | -19.8% |
| N#Cc1ccccc1OCC(=O)N1CC(=O)Nc2ccccc21 | -11.7% | -12.7% |
| Cc1ccc(Cc2c(-c3cccc(Br)c3)nc3c(C)cc(Br)cn23)cc1 | -8.1% | -10.4% |
| CSCCC(c1nc2ccccc2[nH]1)n1c(=O)c(-c2cc3ccccc3[nH]2)nc2ccccc21 (stereo not drawn) | 0.0% | 7.3% |
| C[C@@H]1CN([C@@H](C)CO)C(=O)c2cc(Br)cnc2O[C@H]1CN(C)C(=O)Nc1ccc(F)cc1 | 2.0% | 4.6% |
| CCCCNC(=O)c1c(N)[nH]c(C(=O)c2ccccc2)c1-c1ccc(Cl)cc1 | 1.1% | -20.7% |
| CC(C)C(=O)Nc1cccc(N2CCN(CCCN3C(=O)C4CCCCN4C3=O)CC2)c1 (stereo not drawn) | 5.0% | -4.5% |
| COc1cc(C)c(CN2CCN(C(=O)CCC(=O)c3ccc(C)s3)CC2)cc1OC | -2.6% | ? |
| CC(C)c1ccc(CC(=O)N2CCC2(C)C(=O)Nc2cccc(C#N)c2)cc1 (stereo not drawn) | -5.0% | -29.4% |
| CCOC(=O)[C@]12CCCC=C1N(Cc1ccc(Cl)cc1Cl)C(=O)[C@H](CC(=O)NCCC(C)C)C2 | 21.1% | 11.7% |

2 successive entries already listed, quoted:
| SMILES | RE007 growth inh | StopGo reporter |
| --- | --- | --- |
| CC(C)c1ccc(CC(=O)N2CCC2(C)C(=O)Nc2cccc(C#N)c2)cc1 (stereo not drawn) | -5.0% | -29.4% |
| CCOC(=O)[C@]12CCCC=C1N(Cc1ccc(Cl)cc1Cl)C(=O)[C@H](CC(=O)NCCC(C)C)C2 | 21.1% | 11.7% |

Next section:
| SMILES | RE007 growth inh | StopGo reporter |
| --- | --- | --- |
| N#Cc1ccc(C(=O)N2CCC3CC2c2cc(N4CCCCC4)ccc23)cc1 (stereo not drawn) | -5.8% | 0.0% |
| CCCCOC1NC(=O)NC(=O)C1(F)C(=O)OCC (stereo not drawn) | -25.8% | 0.0% |
| CC[C@@H]1c2ccccc2[C@@H]2CC[C@H]1N2c1ccccc1 | -25.6% | -17.0% |
| COc1ccc(-c2csc(C(NC(C)=O)c3ccc(F)c(F)c3)n2)cn1 (stereo not drawn) | 5.0% | -12.2% |
| CC1(C(=O)NCc2ccccc2)CSCC(=O)N1C1CC1 (stereo not drawn) | 13.9% | -11.6% |
| OC1CCC(Nc2ccn3nc(-c4cccc(Cl)c4)cc3n2)CC1 (stereo not drawn) | -5.5% | -10.8% |
| COc1ccc(OC)c(C2=CC(=O)C[C@H](c3ccc(F)cc3)C2)c1 | 0.1% | -21.5% |
| Cc1cc(C)cc(Cn2c3ccc(NC(=O)NCCc4cccs4)cc3c(=O)n2C)c1 | -7.0% | 56.9%[activator] |

Complete entries, looked up by structure. Values in the order: RE007 growth inh	StopGo reporter
Entry for COc1ccc(OC)c(C2=CC(=O)C[C@H](c3ccc(F)cc3)C2)c1 : 0.1%	-21.5%
Entry for Cc1cc(C)cc(Cn2c3ccc(NC(=O)NCCc4cccs4)cc3c(=O)n2C)c1 : -7.0%	56.9%[activator]
Entry for N#Cc1ccc(C(=O)N2CCC3CC2c2cc(N4CCCCC4)ccc23)cc1 (stereo not drawn) : -5.8%	0.0%
Entry for CCCCOC1NC(=O)NC(=O)C1(F)C(=O)OCC (stereo not drawn) : -25.8%	0.0%

Further entries
| SMILES | RE007 growth inh | StopGo reporter |
| --- | --- | --- |
| CC(=O)Oc1ccc(CN2C(=O)C(CCc3ccccc3)ON=C2c2cnccn2)cc1 (stereo not drawn) | -8.1%[18.4 µM] | 14.1% |
| CCc1ncn(CCc2ccccc2OC)c1C(C)C | ? | -16.2% |
| CCOC(=O)C1(C)CCCN(C(=O)c2c(-c3ccccc3)noc2C)C1 (stereo not drawn) | 0.4% | 5.2% |
| COC(=O)c1cc(Cl)ccc1NCC(N)c1ccccc1 (stereo not drawn) | -13.4% | -0.8% |
| N#CC1c2ccccc2C=CN1C(=O)c1ccc(N(CCCl)CCCl)cc1 (stereo not drawn) | 1.5% | -9.2% |
| Nc1sc(Cc2ccccc2)cc1C(=O)c1c(-c2ccccc2)[nH]c2ccccc12 | -10.3% | 0.4% |
| CC[C@H](C)C1OC(=O)[C@@H](C)[C@@H](CC)NC(=O)[C@H](C)N(C)C(=O)C(C)(C)C(=O)C(C)NC(=O)[C@H](Cc2ccc(OC)cc2)N(C)C(=O)[C@H](C(C)C)N(C)C(=O)CNC(=O)[C@H](CC(C)C)N(C)C(=O)CNC1=O (stereo partly drawn) | -11.7% | -5.8% |
| CCCOc1cccn2c(N(C=O)Cc3ccc(OC)cc3)c(CC)nc12 | -19.6%[18.4 µM] | -0.4% |
| CCNC(=O)C1(C)CCCN1C(=O)c1ccc(F)c(Cl)c1 (stereo not drawn) | 1.5% | -21.7% |
| CC(=O)Nc1cc(-c2cccc(C(=O)NCCN(C)C)c2)cn2c(-c3cccc(C(F)(F)F)c3)cnc12 | -2.1% | -20.6% |
| CC1(Oc2ccc(CC#N)cc2)CCN(Cc2ccccc2OC(F)F)C1 (stereo not drawn) | -21.4% | -9.9% |
| Cc1ccc(C)c(NCCCCC(=O)O)c1 | 4.1% | -8.6% |
| COc1ccc(NC(=O)c2cccc3ccccc23)cc1OC | 4.0% | 1.2% |
| Fc1ccccc1/C=N/Nc1cc(N2CCCCC2)ncn1 | 1.0% | 24.4% |
| COc1ccc(CN(C)C[C@H]2OCCCC[C@H](C)Oc3ccc(NC(=O)CCC(F)(F)F)cc3C(=O)N([C@@H](C)CO)C[C@@H]2C)cc1 | -5.2% | ? |
| COc1ccc(NS(=O)(=O)c2cc(NC(=O)CCc3ccc(OC)c(OC)c3)ccc2N2CCOCC2)cc1 | 2.8% | 60.0%[activator] |
| CCOC(=O)[C@]12CCCC=C1N(Cc1ccccc1)C(=O)[C@H](CC(=O)NCc1cccs1)C2 | 3.8% | 14.0% |
| O=C1C=C(N2CCOCC2)CCC1 | 8.8% | -9.7% |
| Cc1ccc([C@@H]2C[C@H]3[C@@H](CN2S(=O)(=O)c2ccc(Cl)cc2)C(=O)C[C@@H](c2ccccc2F)N3S(=O)(=O)c2ccc(C)cc2)cc1 | -7.1% | -24.3% |
| CS(=O)(=O)c1ccc(C2=C(CNC(=O)c3cccs3)[C@H]3CC[C@@H](C2)N3Cc2ccco2)cc1 | -10.1% | 0.0% |
| O=S1(=O)CC(N2CCCCC2)CN1Cc1cn(Cc2cccc(Cl)c2)nn1 (stereo not drawn) | -7.5% | -13.1% |
| Cc1cccc(C)c1NC(=O)C(c1ccnc2ccccc12)n1c(=O)c(-c2ccco2)nc2ccccc21 (stereo not drawn) | -2.8% | -22.3% |
| Cc1ccc(C(=O)NCC(=O)OCc2nc3ccsc3c(=O)[nH]2)cc1C | 15.7% | 1.7% |
| CC(C)CN(C(=O)Cn1nnc(-c2ccc(Cl)cc2)n1)C1CCS(=O)(=O)C1 (stereo not drawn) | 1.1% | -13.6% |
| CC(C)CNc1ncnc2c1ncn2[C@H]1CN(CCN2CCOCC2)C[C@@H](CO)O1 | 0.9% | -7.7% |
| COC(=O)C(C)(C)c1cccnc1C#N | -4.7% | -9.8% |
| O=C(Nc1ccccc1)N1Cc2ccccc2-n2nncc2C1 | 0.1% | -13.0% |
| C=CCN1C(=O)C(=Cc2ccc3c(c2)CCC3)SC1=S | -7.5% | 47.0%[activator] |
| CC(C)C[C@H]1CNC(=S)N1C[C@H]1CCCN1C[C@H](Cc1ccccc1)N1C[C@H](Cc2ccc(O)cc2)N(CC2CCCCC2)C1=S | 3.1% | -22.6% |
| C#CCOCCOCCOCCNc1nc(N2CCN(C(=O)Cn3cc(CC(C)O)nn3)CC2)nc(N2CCN(C(=O)[C@H](C)n3cc(CCC(=O)O)nn3)CC2)n1 (stereo partly drawn) | -3.7% | 5.2% |
| OCC[C@@H]1C[C@H](O)[C@@H](O)[C@@]2(CCCCO2)O1 | 8.3% | ? |
